# INS promoter inh: TRM-6 insulin promoter activity inhibition; TRM-6 cells (human fetal islet line), insulin promoter-eGFP reporter, imaging; reporter expression induced with tamoxifen; inhibition, % at 2 µM; 130,000 tested, 0.9% active; AID 1273;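 active = inhibition above the mean plus 3 SD, with well images judged a real hit on visual review, cut at about 60% in these data, passing the limit was not always enough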
# GALR2 ag: agonists of human galanin receptor 2 (GALR2); O43603; GALR2-expressing cells, agonist activation read-out; activation, %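 (tested at 5 µM)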; 140,000 tested, 0.48% active; AID 803;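 active = above mean plus 3 SD of all compounds, about 5% in these data, not always enough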;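 note: 0% = vehicle buffer wells and 100% = reference agonist at full effect; tested in CHO reporter cells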
# HSV augment: HSV replication enhancement. HSV replication augmentation in cells, fold increase. maximum fold increase. 220,000 tested, 0.005% active. AID 1956;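 active = peak rise of 1.5-fold or more in the series; tested in PC3 cells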;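 note: first round at 10 µM; read as green reporter fluorescence; hits show the peak of a series up to 25 µM; 1 = signal of infected wells without compound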
# RGS16-Gao: RGS16-Galphao interaction regulator (human). bead-based flow cytometry RGS16-Galphao binding, fluorescence; actives lie on both sides. O15492+P09471. binding response (% of control), % at 10 µM. 220,000 tested, 0.38% active;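 active = below 25% or above 175%, edge rows of some plates excepted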;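 note: Galphao activated by GDP with aluminum fluoride before binding; 100% = wells without compound and 0% = beads without RGS; some results beyond the cut were filed as inactive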
# PKD1 kinase inh: PKD1 (human) kinase inhibition; Q15139; PKD1 kinase fluorescence polarization assay; inhibition, %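 (about 10 µM by stock and volumes)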; 200,000 tested, 0.056% active; AID 797;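 active = inhibition of 50% or more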;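 note: controls were vehicle for no effect and a reference inhibitor for full effect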
# Target sequence (Q15139 whole entry, looked up): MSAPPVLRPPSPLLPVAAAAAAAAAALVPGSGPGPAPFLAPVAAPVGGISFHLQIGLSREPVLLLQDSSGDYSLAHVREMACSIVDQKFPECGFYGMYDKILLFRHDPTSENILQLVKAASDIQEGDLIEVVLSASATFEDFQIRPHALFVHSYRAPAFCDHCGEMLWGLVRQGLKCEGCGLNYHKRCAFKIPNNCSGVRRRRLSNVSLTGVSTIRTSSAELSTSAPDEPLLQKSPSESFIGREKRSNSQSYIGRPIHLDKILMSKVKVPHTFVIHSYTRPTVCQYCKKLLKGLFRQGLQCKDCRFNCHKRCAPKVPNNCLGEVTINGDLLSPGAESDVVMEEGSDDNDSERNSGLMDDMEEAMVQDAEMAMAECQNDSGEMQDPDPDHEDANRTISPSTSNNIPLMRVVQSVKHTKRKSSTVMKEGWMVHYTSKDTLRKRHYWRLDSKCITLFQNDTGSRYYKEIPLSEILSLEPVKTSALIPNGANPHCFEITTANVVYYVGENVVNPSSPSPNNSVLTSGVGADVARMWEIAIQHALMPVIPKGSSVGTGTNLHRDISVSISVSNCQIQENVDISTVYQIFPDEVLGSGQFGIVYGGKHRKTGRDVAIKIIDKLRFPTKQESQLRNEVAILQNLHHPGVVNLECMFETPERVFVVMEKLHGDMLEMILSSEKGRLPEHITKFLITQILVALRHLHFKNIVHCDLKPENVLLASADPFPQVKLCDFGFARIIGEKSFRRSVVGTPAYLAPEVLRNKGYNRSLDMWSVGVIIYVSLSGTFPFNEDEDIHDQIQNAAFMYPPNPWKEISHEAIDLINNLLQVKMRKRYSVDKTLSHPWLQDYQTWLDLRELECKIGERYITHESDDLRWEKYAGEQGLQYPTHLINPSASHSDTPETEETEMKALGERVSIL
# INS promoter inh cell count: also measured in INS promoter inh; calls as there; normalized cell count, %; measured here: cell count, toxicity; reference of the scale not given here;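 cells exposed to compound for 48 h; stained nuclei by imaging scaled within each plate; lower means fewer cells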
# HSV augment primary fold: further read-out of HSV augment, marked with its call; fold increase; compound at 10 µM; measured here: primary screen fold increase 10 uM; tested in PC3 cells;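 GFP signal in the first replicate; 1 = infected wells without compound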
# Starred values were filed as active, the others as inactive; i = inactive; / = no result given.
SMILES,INS promoter inh,INS promoter inh cell count,GALR2 ag,HSV augment,HSV augment primary fold,RGS16-Gao,PKD1 kinase inh
Cc1ccc(NC(=O)CC(=O)NCCN2CCOCC2)cc1,/,/,-1.0,i,0.91,102,-4
CSC1=NCCN1S(=O)(=O)c1ccc(NC(C)=O)cc1,26,79,/,i,0.91,98,-9
Cc1ccc(S(=O)(=O)N(C)C)cc1NC(=S)N1CCCCC1CO (stereo unspecified),29,66,/,i,1,101,4
COc1ccc(CCNC(=S)NC2CCN(Cc3ccccc3)CC2)cc1,19,128,/,i,0.95,102,3
Cc1c(NC(=O)c2cc3c(s2)-c2ccccc2OC3)cccc1[N+](=O)[O-],28,117,-1.8,i,0.83,104,-11
CCN(CC(=O)Nc1cccc(F)c1)Cc1nc2ccccc2c(=O)[nH]1,-10,146,/,i,1,108,-9
Cc1onc(-c2ccccc2)c1C(=O)N1CCOC12CCN(c1cccc(F)n1)CC2,/,/,/,i,1.1,100,-1
C=CCn1c(CNC(=O)c2cccs2)nnc1SCC(=O)Nc1ccc(C(=O)O)cc1,46,114,-1.3,i,0.95,98,1
Cc1onc(-c2c(F)cccc2Cl)c1C(=O)Nc1sc2c(c1C(N)=O)CCC2,17,143,-0.1,i,0.69,100,1
Cc1ccccc1-c1nsc(SCC(=O)c2ccc(Cl)cc2)n1,/,/,-0.6,/,/,100,1
COCCNC(=O)CCn1nc(-c2ccc(Cl)cc2)ccc1=O,-23,100,-3.0,i,0.98,101,2
O=C(NC1=NCCS1)c1cccc(S(=O)(=O)N2CCc3ccccc32)c1,/,/,/,i,0.9,97,-4
COc1cccc(C2SCC(=O)N2c2ccc(Cl)cc2)c1OC (stereo unspecified),-24,111,-1.4,i,1.1,95,-3
O=C(c1ccc(S(=O)(=O)N2CCOCC2)cc1)N(Cc1ccco1)Cc1cccs1,21,98,0.1,i,1,99,-3
CC(C)Nc1nc(-c2ccccc2)nc(-n2ccnc2)n1,/,/,-0.1,i,0.91,107,3
Cc1ccccc1OCC(=O)NC1=NCCS1,-5,110,-1.4,i,0.97,93,-8
CC(=O)N1CCc2cc(Br)cc(S(=O)(=O)NCCCN3CCCC(C)C3)c21 (stereo unspecified),39,85,-0.1,i,1,102,-7
O=C(c1cccc(F)c1)N1CCN(c2ccc([N+](=O)[O-])c(N3CCOCC3)c2)CC1,33,144,-0.2,i,1,102,0
CCCS(=O)(=O)n1nc(-c2ccc(C)cc2)cc1N,/,/,-1.4,i,0.98,96,0
c1ccc(Cc2nn3c(-c4ccncc4)nnc3s2)cc1,49,127,-1.6,i,0.88,102,1
COc1ccc(Cc2nc(-c3cccnc3)no2)cc1OC,5,132,/,i,1.1,104,-6
NS(=O)(=O)c1cccc(NC(=O)CSc2nnc(C3CC3)n2Cc2ccccc2)c1,/,/,/,i,0.87,100,/
CCC(=O)OC1(C#CCOc2ccc(OC)cc2)CCN(C)CC1,-11,98,-1.0,i,0.99,95,-4
O=S(=O)(c1ccc(F)cc1)N1CCN(c2ccc(-c3ccccc3)nn2)CC1,/,/,/,i,0.94,95,3
CCOc1ccc(OCC(=O)Nc2ccc(S(N)(=O)=O)cc2)cc1,-19,108,/,i,1,104,1
Cc1cc(C)n(-c2ccc([N+](=O)[O-])cc2-c2nn[nH]n2)n1,-3,70,/,i,0.87,99,-12
CCCCOC(=O)N/N=C/C=C/c1ccccc1,0,125,-0.8,i,0.9,107,4
CC(C)Oc1ccc(S(=O)(=O)N(C(C)C)C(C)C)cn1,56,89,-4.3,i,1.1,99,9
O=S(=O)(Cc1ccccc1)N1CCc2ccccc21,-263,28,-0.8,i,1.1,110,-13
CN(C1CCCCC1)S(=O)(=O)c1ccc(S(=O)(=O)N2CCN(CCC#N)CC2)cc1,/,/,-0.7,i,1.1,105,-3
Cc1ccc(-n2nccc2-c2nn(-c3cccc(C(F)(F)F)c3)c(=O)n(C)c2=O)cc1,/,/,/,i,0.86,102,-6
O=C(Nc1nc2ccccc2[nH]1)c1ccc(Br)o1,8,119,/,i,0.86,102,-5
CCN(CC)CCn1c2ccc(Cl)cc2c2nc(C)sc21,/,/,-1.4,i,0.84,74,2
Nc1ccn([C@@H]2O[C@H](CO)[C@@H](O)C2O)c(=O)n1 (stereo partly specified),/,/,/,i,0.64,92,/
Cc1ccc2c(c1)N(CCC(=O)NCC1CCCO1)C(=O)CO2 (stereo unspecified),9,107,-1.1,i,0.91,106,-6
CCc1ccc(NC(=O)CSCCN2C(=O)c3ccccc3C2=O)cc1,14,66,-1.5,i,0.97,109,1
O=C(Nc1ccc(N2CCCC2)c(Cl)c1)c1ccc([N+](=O)[O-])cc1,20,49,-2.6,i,0.81,71,8
COc1ccc(N2CCN(c3nc4c(c(=O)[nH]c(=O)n4C)n3Cc3cccc(C)c3)CC2)cc1,28,126,0.1,i,0.84,96,8
O=C(NS(=O)(=O)Oc1cccc(Cl)c1Cl)OC[C@@H]1CCCN2CCCCC12 (stereo partly specified),-50,78,-2.7,i,0.91,99,-13
COc1ccc(OC)c(NC(=O)CSc2nc3ccccc3cc2Cc2ccccc2)c1,55,99,-2.5,i,0.9,97,3
Cc1ccc(S(=O)(=O)N2CCCCCC2)cc1[N+](=O)[O-],20,143,0.2,i,0.97,98,-1
COc1ccc(CCNC(=O)CCS(=O)(=O)c2cccc3nsnc23)cc1OC,/,/,-1.0,i,0.89,102,-3
CC(C)(CNc1ccc([N+](=O)[O-])cc1Cl)CNS(C)(=O)=O,-38,67,0.5,i,1,114,-9
COc1ccc(CN2CCN(C(=O)C3CCC(CNS(=O)(=O)c4ccccc4)CC3)CC2)c(OC)c1OC (stereo unspecified),9,66,/,i,0.94,103,-8
O=C(NCc1ccccc1)c1ccc(/C=N/O)nc1,12,95,-0.9,i,0.98,63,-6
CC(C)Cn1c(N)c(C(=O)COC(=O)CN2C(=O)C3CC=CCC3C2=O)c(=O)n(C)c1=O (stereo unspecified),21,124,/,/,/,104,9
CC(C)NC(=O)c1ccccc1NC(=O)C1CCCO1 (stereo unspecified),-7,103,-1.8,i,1,100,3
COc1cccc(NC(C)C(=O)N2CC(C)OC(C)C2)c1 (stereo unspecified),31,132,-3.6,i,0.81,102,6

# Shown as tab-separated lines: part of the list above
smiles	INS promoter inh	INS promoter inh cell count	GALR2 ag	HSV augment	HSV augment primary fold	RGS16-Gao	PKD1 kinase inh
CC(C)(CNc1ccc([N+](=O)[O-])cc1Cl)CNS(C)(=O)=O	-38	67	0.5	i	1	114	-9
COc1ccc(CN2CCN(C(=O)C3CCC(CNS(=O)(=O)c4ccccc4)CC3)CC2)c(OC)c1OC (stereo unspecified)	9	66	/	i	0.94	103	-8
O=C(NCc1ccccc1)c1ccc(/C=N/O)nc1	12	95	-0.9	i	0.98	63	-6

# More structures follow.
SMILES,INS promoter inh,INS promoter inh cell count,GALR2 ag,HSV augment,HSV augment primary fold,RGS16-Gao,PKD1 kinase inh
Cc1ccc(C(=O)N2CCSC2=S)cc1,/,/,/,i,0.95,101,0
Cc1cc(C)nc(NC(=O)CSc2nc3ccccc3s2)n1,4,88,4.0,i,0.93,109,-2
CCOC(=O)C1=C(c2ccccc2)N=C2SCC(=O)N2C1c1ccc(OC)c(OC)c1 (stereo unspecified),-4,125,-1.4,i,1,101,-9
Cc1cccc(C)c1NC(=O)N1CCC(N2CCCCC2)CC1,-12,100,-0.7,i,0.96,100,-22
CC(=O)C1=C(O)C(=O)N(Cc2ccccc2)C1c1cccs1 (stereo unspecified),-58,136,-1.7,i,0.56,106,-2
O=c1c2[nH]c3ccccc3c2ncn1C1CCCCC1,/,/,-0.8,i,0.93,103,-12
O=C(O)c1cn(-c2ccccc2)nc1C(=O)O,-22,55,-2.3,i,0.91,119,1
CC(C)NC(=O)NC(=O)COC(=O)c1ccc(S(=O)(=O)Nc2ccccc2)cc1,33,158,/,i,1,105,6
COc1ccc(C(=O)NNC(=O)CSc2nc3c(c(=O)n(C)c(=O)n3C)n2C)cc1,-57,113,/,i,0.88,99,-1
CCOc1ccc(OCC)c(NC(=O)CSc2nc3c(c(=O)n(C)c(=O)n3C)n2CC)c1,-10,109,-1.8,i,0.9,102,-1
CNC(=O)CO/N=C/c1ccc(N(C)C)cc1,-15,99,/,i,1,110,-8
O=C(N/N=C/c1ccc[nH]1)c1ccncc1,-7,91,/,i,0.99,98,0
Oc1cc2c(cc1O)[C@@H](c1ccccc1)CNCC2,0,85,-0.9,i,0.85,49,9
O=C(NNC(=S)Nc1ccc(Cl)c(Cl)c1)c1ccccn1,/,/,/,i,0.79,98,-2
O=C(N/N=C/c1cccs1)c1c[nH]c2ccccc12,/,/,-0.2,i,0.87,103,2
COc1ccc(Cl)cc1NC(=O)Cn1c(NCCO)nc2ccccc21,/,/,/,i,0.93,102,-1
O=C1[C@@H]2[C@H](C(=O)N1O)[C@H]1C=C[C@@H]2C1,-254,63,-1.9,i,0.83,106,-3
Cc1ccc(OC(=O)CCC(=O)OCCCC(F)(F)C(F)(F)F)cc1,-34,150,0.1,i,1,127,-5
N#CCCC1CCCC=C1N(Cc1ccccc1)C(=O)C(Cl)Cl (stereo unspecified),/,/,/,i,0.91,103,/
O=C1NC2(CCCCC2)NN1c1ccccc1,14,132,-0.9,i,1,110,1
CCCCCCCCN=C1NC(=O)CS1,20,137,-2.6,i,0.97,101,0
Cc1cccc2sc(N(CCCN(C)C)C(=O)c3ccc(Cl)s3)nc12,18,52,/,i,1,107,-10
CCOc1ccc(CN2CCN(Cc3ccon3)CC2CCO)cc1 (stereo unspecified),-24,104,/,i,1.1,110,0

# A draw from above in order of SMILES length, descending:
SMILES,INS promoter inh,INS promoter inh cell count,GALR2 ag,HSV augment,HSV augment primary fold,RGS16-Gao,PKD1 kinase inh
N#CCCC1CCCC=C1N(Cc1ccccc1)C(=O)C(Cl)Cl (stereo unspecified),/,/,/,i,0.91,103,/
O=C(NNC(=S)Nc1ccc(Cl)c(Cl)c1)c1ccccn1,/,/,/,i,0.79,98,-2
CCOc1ccc(CN2CCN(Cc3ccon3)CC2CCO)cc1 (stereo unspecified),-24,104,/,i,1.1,110,0
Oc1cc2c(cc1O)[C@@H](c1ccccc1)CNCC2,0,85,-0.9,i,0.85,49,9
CCCCCCCCN=C1NC(=O)CS1,20,137,-2.6,i,0.97,101,0

# Screening results as filed in PubChem.
